Assay outcomes from PubChem.
Menin MLL FP FL – inhibitors of human menin-MLL interaction, wild-type MLL peptide. Fluorescence polarization, fluorescein-MLL peptide displacement from menin. FP activity change, % at 61.4 µM. 290,000 tested, under 10 active; inconclusive = falling polarisation curve, or a change in total fluorescence; inactive = total fluorescence flat and polarisation flat or rising; no compound was filed as active; the % refers to the polarisation; negative = inhibition;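 note: % of control where 0% means no effect; inhibitors lower the polarisation; unlabelled MLL peptide was the positive control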
TRPV1 PAM – human TRPV1 potentiation. Q8NER1. TRPV1-expressing cells, Fluo-8 calcium influx, capsaicin EC20 potentiation; host cell line not named in the record; control for the full effect not named in the record. potentiation, % at 8.33 µM. 0.02% of 320,000 active. AID 540277; active means potentiation above 80%; inconclusive means 30% to 80%; inactive means below 30%; note: 0% is about no effect
Target sequence (Q8NER1 whole entry, looked up): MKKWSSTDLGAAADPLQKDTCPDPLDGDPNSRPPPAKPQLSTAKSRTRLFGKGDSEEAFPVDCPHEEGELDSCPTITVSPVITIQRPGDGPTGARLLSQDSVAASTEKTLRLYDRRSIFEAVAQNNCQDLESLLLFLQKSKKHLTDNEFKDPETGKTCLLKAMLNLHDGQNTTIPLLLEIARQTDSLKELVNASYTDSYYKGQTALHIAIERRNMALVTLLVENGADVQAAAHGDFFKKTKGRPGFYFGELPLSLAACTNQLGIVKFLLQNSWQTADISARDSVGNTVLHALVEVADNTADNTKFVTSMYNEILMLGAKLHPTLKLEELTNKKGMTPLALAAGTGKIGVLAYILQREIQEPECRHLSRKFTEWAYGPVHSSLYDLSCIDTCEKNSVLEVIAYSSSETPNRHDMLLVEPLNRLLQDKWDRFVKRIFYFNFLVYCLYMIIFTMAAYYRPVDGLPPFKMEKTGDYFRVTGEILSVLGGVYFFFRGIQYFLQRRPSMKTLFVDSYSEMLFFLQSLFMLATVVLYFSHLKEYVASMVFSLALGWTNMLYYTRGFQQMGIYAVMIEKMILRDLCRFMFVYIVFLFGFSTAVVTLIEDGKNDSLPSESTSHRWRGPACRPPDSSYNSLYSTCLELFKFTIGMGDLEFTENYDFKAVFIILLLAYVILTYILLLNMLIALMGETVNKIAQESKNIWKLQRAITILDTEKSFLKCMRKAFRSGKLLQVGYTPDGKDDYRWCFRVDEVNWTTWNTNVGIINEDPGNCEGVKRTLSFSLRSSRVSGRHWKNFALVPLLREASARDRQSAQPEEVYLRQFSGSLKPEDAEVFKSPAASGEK
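Cells expressing TRPV1 were dye-loaded with Fluo-8 and read kinetically: 10 s baseline, 3 min after compound (agonist portion), then 2 min after EC20 capsaicin (allosteric enhancer portion). Calcium-bound dye fluorescence at 480/520 nm.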
gsp agonist – gsp mutant agonism; Potency, µM (highest dose often 76.9 µM), without a hit: at the highest dose activation (cAMP increase), most hits filed as activators; gsp mutant cells, cAMP HTRF, 30 min; control for the full effect not named in the record; 0.13% of 340,000 active; active = well fitted activation curve with a large enough effect; inconclusive = small, poorly fitted or top-dose-only effect, or another doubt; inactive = no such curve, though single readings can be large or run the other way; cell line not stated here;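 note: phosphodiesterase inhibitor Ro 20-1724 added with compounds to block cAMP breakdown; potency is the fitted concentration of half-maximal effect; nearly all actives have a fitted effect of over 60% in size; about a fifth of the inactives were tested at one dose only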
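Cells stably selected in G418 were plated at 2000/well, grown 16-24 hr, then given compounds in DMSO with the PDE inhibitor […] (300 uM solution added) for 30 min at 37C; cAMP was read by HTRF.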
CtBP-E1A blk – CtBP/E1A binding inhibition | AlphaScreen GST-E1A/His-CtBP binding, 1536-well; active compounds read low; control for the full effect not named in the record | activity change, % (test concentration not listed) | 0.49% of 340,000 active | AID 651724; in the data active means activity change below about -65%; inconclusive means about -30% to -65%; inactive means above about -30%; note: % is set by controls: 0 for no effect and ±100 for the full control effect
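In 5 uL wells, 23 nL compound meets equimolar GST-E1A and His-CtBP (5X stock 125 nM each) for 2 h, 37 °C. Beads (5X, 50 ug/mL) then 1 h, 37 °C, dark.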
Sfp inh – Sfp phosphopantetheinyl transferase inhibition | Potency, µM, for inactives: max response, negative = inhibition, hits mostly inhibitors | AID 1490 | Q9F4F7 | 3.5% of 310,000 active | Biochemical Sfp PPTase activity, qHTS; active = well fitted inhibition curve with a large enough effect; inconclusive = small, poorly fitted or top-dose-only effect, or another doubt; inactive = no such curve, though single readings can be large or run the other way;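 note: the enzyme is Sfp with the accession as filed and its product quenches rhodamine fluorescence; potency is the fitted concentration of half-maximal effect; 0% = enzyme reaction without inhibitor and -100% = no enzyme wells; top concentration of the series not given in the record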
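Step 1, compound plus 15 nM Sfp-PPTase, 15 min, room temperature. Step 2, add rhodamine-CoA (5 uM) and BHQ-2-YbbR (12.5 uM). Step 3, read 525/598 nm fluorescence at 0 and 30 min.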
ClpP mod – qHTS Assay for Activators of ClpP; ATP-dependent Clp protease proteolytic subunit (Bacillus subtilis (strain 168)), P80244; purified B. subtilis ClpP, FRET peptide cleavage, 20 min; Potency, µM (doses to about 57.5 µM), for the others: at the highest dose activity change, negative = active; 1.9% of 340,000 active; AID 651965, 2013; active = well fitted falling curve with a large enough effect; inconclusive = small, poorly fitted or top-dose-only effect; inactive = no such curve, though single readings can be large or run the other way; note: potency is the fitted concentration of half-maximal effect; the source files actives as falling curves though it sought activators and does not explain the sign; nearly all actives have a fitted effect of over 65% in size; many hits overshoot -100%
Target sequence (P80244 whole entry, looked up): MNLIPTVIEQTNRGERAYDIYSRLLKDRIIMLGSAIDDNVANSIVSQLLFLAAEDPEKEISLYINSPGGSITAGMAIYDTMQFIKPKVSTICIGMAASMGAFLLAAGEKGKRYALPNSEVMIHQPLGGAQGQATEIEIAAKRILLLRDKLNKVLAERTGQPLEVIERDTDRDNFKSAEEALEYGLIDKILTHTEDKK
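ClpP 10 microg/mL final, pH 8 Tris/KCl buffer with BSA, glycerol, Tween-20; compound pinned in; FRET-FV substrate; RT 20 min; Ex320/Em430; ΔFRET vs ADEP 5.8 microM, DMSO, no enzyme.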
gsp antagonist – antagonists of gsp mutant (McCune-Albright syndrome); gsp-mutant cells, cAMP HTRF, 30 min; control for the full effect not named in the record; Potency, µM (top dose mostly 76.9 µM), for inactives: at the highest dose activity change, negative = inhibition, usual class: inhibitors; 0.4% of 340,000 active; AID 624288; active = falling curve of any shape with a large fitted effect; inconclusive = falling curve, mostly with a smaller effect; inactive = flat or rising curve; cell line not stated here;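 note: intracellular cAMP measured with PDE inhibitor Ro 20-1724 present during compound exposure; potency is the fitted concentration of half-maximal effect; % is set by controls: 0 for no effect and ±100 for the full control effect; nearly all actives have a fitted effect of over 65% in size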
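Measurement of cellular cAMP by homogeneous time-resolved fluorescence following a 30 min compound exposure at 37C. The PDE inhibitor […] was present throughout; the assay buffer was DPBS with 0.05% BSA and 0.005% Tween 20.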
Starred values were filed as active, the others as inactive; u = inconclusive; x = not tested or not shown; & = joins results of further samples; [ ] = remark or other dose.

SMILES	Menin MLL FP FL	TRPV1 PAM	gsp agonist	CtBP-E1A blk	Sfp inh	ClpP mod	gsp antagonist
CCCCCCOC(=O)C(C#N)c1nc2ccccc2nc1N1CCN(CC)CC1 (stereo not given)	11	-6	-39%[inhibitor]	-30	-33%	-0.3%	8%
C[C@]12C(=O)N(c3ccc(Cl)cc3)C(=O)N1[C@@H]1c3ccccc3OC[C@@H]1[C@H]2c1ccccc1	x	x	2%	-23	x	-3.9%	u
O=C(N[C@@H]1C/C=C\C[C@@H](CC(=O)N(CCO)Cc2ccccc2)C(=O)NCCOC1=O)OCC1c2ccccc2-c2ccccc21	x	x	8%	-10	x	-7.5%	1%
COc1ccccc1CNC(=O)C(=O)c1cn(CC(=O)N2CCOCC2)c2ccccc12	x	7	-7%	22	7%	-0.8%	-25%
C(=Cc1c[nH]c2ccccc12)c1nccc2ccccc12	x	x	-5%	9	x	x	-6%
O=C(C1CC=CCC1)N1CCN(S(=O)(=O)c2ccc(F)cc2)CC1 (stereo not given)	x	-3	-42%[inhibitor]	-24	x	-3.8%	6%
CCOc1ccc(CCNC(=O)c2[nH]c(C)c(C(C)=O)c2C)cc1OCC	4.4	-7	1%	-6	-3%	x	-18%
CCCCn1c(O)c(N=NC(=O)c2ccncc2)c2cc(Br)ccc21	1.1	-10	-6%[15.4 µM]	2	10%	x	-3%
COc1ccc(NS(=O)(=O)c2cn(C)cn2)cc1Cl	-0.8	-5	-35%[inhibitor]	x	21%	2.3%	-1%
CCCCc1[nH]c(=O)c(C#N)c2c1CCCC2	7.2	12	0%	7	2%	25µM*	9%
O=C(COC(=O)COc1ccc(Br)cc1)NC1CCS(=O)(=O)C1 (stereo not given)	x	x	-44%[inhibitor]	1	x	-0.1%	x
Cc1ccc(C(=O)C(C)OC(=O)c2cc3cc([N+](=O)[O-])ccc3oc2=O)cc1 (stereo not given)	5.5	3	-16%	4	5%	-0.2%	-16%
CCC(C)NC(=O)C1c2ccccc2C(=O)N1Cc1ccccc1 (stereo not given)	2.3	6	-29%	3	1%	0.0%	9%
Cc1ccccc1C(=O)N1CCc2ccccc2C1	4.3	-20	u	2	8%	0.6%	3%
COc1cccc(CNC(=O)c2n[nH]c3ccccc23)c1	-1.6	-12	4%	1	-4%	x	0%
Cc1ccsc1C(=O)N1CCCC(CCC(=O)NCc2ccc(F)c(F)c2)C1 (stereo not given)	8.9	-18	6%	x	0%	-0.8%	1%
COc1ccc(-n2cnc3cc(C(=O)NC4CCCC4)ccc32)cc1	-3.7	-19	7%	-6	1%	-2.1%&-0.6%	-7%
Cc1cc(C)n(C(=O)CNC(=O)Cc2ccccc2)n1	3.4	-6	-13%	22	21%	0.5%	5%
O=c1c2c3c(sc2nc2n1CCCCC2)CCCC3	0.6	7	-27%	-2	32µM*	-0.5%	2%
O=C1C(Cc2cccc([N+](=O)[O-])c2)S/C(=N/N=C/c2ccco2)N1c1ccccc1 (stereo not given)	0.5	2	0%	4	13%	-0.5%	-3%
O=C(CN1C(=O)c2ccccc2S1(=O)=O)N1CCOCC1	6.1	-3	9%	-3	15%	0.1%	5%
CC(C)C[C@@H](CO)N1CCN(CCCc2ccccc2)CCC1=O	-0.8	26	-36%	7	7%	1.5%	19%
Cc1ccc(/C=C/c2nc3ccccc3s2)s1	u	-13	22%	73	-7%	-7.1%	-1%
CC(=O)n1nc(-c2ccc(Cl)cc2)nc1NCc1ccco1	5.9	15	1%	12	4%	29%	5%
Cc1ccc(S(=O)(=O)NCC(C)NS(C)(=O)=O)cc1 (stereo not given)	4.5	-4	-1%	2	11%	3.0%	6%
CCc1nnc(NS(=O)(=O)c2ccc(NC(=S)NC(=O)/C=C/c3ccccc3)cc2)s1	-0.8	4	-25%[15.4 µM]	5	-8%	-1.9%	-20%
COC(=O)c1cccc(-c2ccc(C(c3c(C)[nH][nH]c3=O)c3c(C)[nH][nH]c3=O)o2)c1	3.4	-1	3%[15.4 µM]	-9	8.9µM*	x	-1%
O=C1CC(C(=O)N(c2ccc(F)cc2)C(C(=O)NC2CCCC2)c2ccccn2)CS1 (stereo not given)	5.5	-11	-15%	6	-4%	0.0%	2%
O=C(N/N=C/c1ccc(O)cc1)NC12CC3CC(CC(C3)C1)C2	9.1	4	6%[15.4 µM]	-6	8%	-1.5%	5%
Cc1cc(C)c2c(CC(=O)NN(C)C)coc2c1	-5.1	4	15%	-9	18%	x	7%
CCOC(=O)c1c(NC(=O)CSc2ccccc2C(=O)O)sc(C)c1C	0.5	10	28%[15.4 µM]	-6	5%	16µM*	u
NC(=O)[C@@H]1CCCNc2c(I)cc([N+](=O)[O-])cc2C(=O)N[C@@H](CO)C(=O)N[C@@H](Cc2ccc(O)cc2)C(=O)N1	1.1	3	x	-2	-4%	-0.4%	1%
Cc1cc(C(c2cc(C)c(N)c(C)c2)c2ccco2)cc(C)c1N	x	x	-5%[15.4 µM]	4	x	0.9%	12%
CCCCCCn1c(=O)n2n(c1=O)C[C@]1(OC(=O)Nc3cccs3)CN(S(=O)(=O)c3ccc(C)cc3)C[C@]1(O)C2	x	x	u	-4	x	0.5%	x
CCc1ccc(N2CC(C(=O)OCC(=O)Nc3cc(C)on3)CC2=O)cc1 (stereo not given)	6.3	27	0%	-1	9%	-2.7%	-16%
O=C(COC(=O)CCCSc1nc2ccccc2[nH]1)NC(=O)NC1CCCC1	-2.5	4	-28%	40	-1%	1.4%	26%
COc1ccc(CNC(=O)COC(=O)c2[nH]c(C)c(C(C)=O)c2C)cc1OC	x	-8	u	x	x	-0.7%	2%
CCNC(=O)O/N=C1\CCCCC1c1ccc([N+](=O)[O-])cc1[N+](=O)[O-] (stereo not given)	2.5	u	-23%	21	-1%	-0.4%	-14%
CCC1=C(c2cc(OC)c(OC)c(OC)c2)C2(CCCC2)C(=O)O1	5.9	2	-25%	x	11%	-0.3%	0%
CCCN(CCC)C(=O)Cn1c(=O)c2sccc2n2c(=S)sc(-c3ccccc3)c12	-3.1	2	18%	7	-6%	-0.2%	3%
CC(=O)c1ccc(N2CCN(Cc3nc4ccccc4[nH]3)CC2)cc1	7.0	19	2%	-1	10%	x	-7%
COc1ccc(Cl)cc1NS(=O)(=O)c1c(C)[nH]c(C)c1C(=O)N1CCCCC1	1.1	-4	13%	x	13%	-0.2%	-1%
O=c1c2ccccc2nnn1CSc1ncnc2ccccc12	-1.9	9	2%	4	15%	-1.6%	2%[15.4 µM]
CCCN(CC1CC1)S(=O)(=O)c1ccc(S(N)(=O)=O)cc1	0.9	8	8%	5	12%	1.1%	3%
CCc1nn(C(C)C(=O)NCCc2ccccc2)c(=O)c2cc3occc3n12 (stereo not given)	x	1	49%	-5	5%	-11%	-7%
COc1ccc(-c2nnc3n2CCCCC3)cc1	5.2	-9	14%[15.4 µM]	6	6%	x	1%
FC(F)(F)c1cccc(OCCN2CCN(Cc3ccccc3)CC2)c1	-0.9	15	23%	0	35µM*	1.9%	-3%
CCCCN(C(=O)c1cccc(N2C(=O)c3ccccc3C2=O)c1)c1c(N)n(CCCC)c(=O)[nH]c1=O	x	x	-4%	4	x	1.0%	6%
CCCCCC(C)NC(=O)c1ccoc1C (stereo not given)	0.5	10	1%	47	17%	1.3%	3%
O=C(Cn1cnc2c(nnn2-c2ccccc2)c1=O)N1CCC(Cc2ccccc2)CC1	6.8	3	18%	0	12%	1.5%	-14%
COc1ccc(Cc2nc3ccc(C(=O)NCCn4cccn4)cc3o2)cc1	-4.9	22	2%	-3	20%	-2.0%	5%
CC(NC(=O)COC(=O)CN1C(=O)c2ccccc2C1=O)c1ccccc1 (stereo not given)	x	x	8%	4	x	-1.6%	-2%
CCC(C(=O)N1CCc2ccccc2C1)n1nc(C)n2c(cc3occc32)c1=O (stereo not given)	6.0	10	35%	-1	0%	-17%	2%
Cc1c(Cl)cccc1NC(=O)N1CCCN(c2nc(-c3ccccc3)ns2)CC1	-1.5	-6	u	1	15%	x	u
O=C1NC(=O)C2C3c4ccccc4C(c4ccccc43)C12 (stereo not given)	-0.1	7	-20%	5	1%	0.7%	-16%
C#CCOCCOCCOCCNc1nc(N2CCOCC2)nc(N2CCN(C(=O)[C@H](CCCCN)n3cc(CCC(=O)O)nn3)CC2)n1	x	x	x	2	x	1.1%	11%
Cc1nc(N2CCN(C(=O)c3ccco3)CC2)nc2c1C(=O)CCC2	x	-9	-23%	10	-15%	-0.6%	-8%
O=C(O)CCC(=O)N1CCc2cc(S(=O)(=O)NC3CCCC3)ccc21	1.9	-7	-6%	0	0%	0.4%	-2%
CN(C)CCCN1C(=O)C(=O)/C(=C(/O)c2ccccc2)C1c1ccccn1 (stereo not given)	5.7	5	x	x	7%	x	x
O=S1(=O)N=C(Oc2cccc3ccccc23)c2ccccc21	-0.4	-8	-31%[inhibitor]	-3	14%	u	7%
Next part.
SMILES	Menin MLL FP FL	TRPV1 PAM	gsp agonist	CtBP-E1A blk	Sfp inh	ClpP mod	gsp antagonist
COc1ccccc1CC(=O)Nc1ccc2c(c1)OC1(CCCC1)O2	x	x	-4%	-21	x	x	-7%
CC(C)c1ccc(NC(=O)CNCC(c2ccccc2)N(C)C)cc1 (stereo not given)	-2.6	3	9%	8	u	-0.3%	4%
Cc1noc(/C=C/c2nn(C)cc2Cl)c1[N+](=O)[O-]	1.2	4	-10%	x	4%	0.2%	8%
COc1cc(/C=C/c2ccc(/C=C/c3cc(OC)c(OC)c(OC)c3)cc2)cc(OC)c1OC	x	x	u	11	x	-1.9%	7%

In another format: 4 of the compounds above
Order of values: Menin MLL FP FL | TRPV1 PAM | gsp agonist | CtBP-E1A blk | Sfp inh | ClpP mod | gsp antagonist
CC(C)c1ccc(NC(=O)CNCC(c2ccccc2)N(C)C)cc1 (stereo not given)
 : -2.6 | 3 | 9% | 8 | u | -0.3% | 4%
COc1ccccc1CC(=O)Nc1ccc2c(c1)OC1(CCCC1)O2
 : x | x | -4% | -21 | x | x | -7%
Cc1noc(/C=C/c2nn(C)cc2Cl)c1[N+](=O)[O-]
 : 1.2 | 4 | -10% | x | 4% | 0.2% | 8%
COc1cc(/C=C/c2ccc(/C=C/c3cc(OC)c(OC)c(OC)c3)cc2)cc(OC)c1OC
 : x | x | u | 11 | x | -1.9% | 7%
